Assay outcomes as filed in PubChem BioAssay.
RE007 growth inh – less growth of the S. pombe RE007 Vpr strain | Potency, µM (titrated, usually from 92.2 µM), without a hit: at the top dose activity change, negative = less growth | AID 651644 | 0.21% of 360,000 active | S. pombe RE007 Vpr strain, BacTiter-Glo ATP luminescence, 24 h; control for the full effect not named in the record; active = well fitted falling curve with a large enough effect; inconclusive = small, poorly fitted or top-dose-only effect; inactive = no such curve, though single readings can be large or run the other way;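 note: % is set by controls: 0 for no effect and ±100 for the full control effect; nearly all actives have a fitted effect of over 50% in size; the assay follows cell death caused by Vpr and the record does not say whether a fall means rescue or toxicity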
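Fission yeast RE007 carrying one integrated HIV-1 vpr copy, seeded at OD 0.01 in PMG+AL medium with 23 nL pinned compound. Grown 24 h at 30 degrees; viability read by BacTiter-Glo luminescence after 5 min.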
Marburg entry inh – Marburg virus entry inhibition; Marburg virus pseudotyped entry inhibition, cell reporter; control for the full effect not named in the record; about a third of the inactives were read at about 46 µM; Potency, µM (top dose mostly 37.8 µM), for the others: at the top dose activity change, negative = inhibition, most hits filed as inhibitors; 1.8% of 300,000 active; AID 540276; active = well fitted inhibition curve with a large enough effect; inconclusive = small, poorly fitted or top-dose-only effect, or effect the other way; inactive = flat fitted curve, though single readings scatter; tested in HEK293 cells; about a fifth of its hits are not listed in these tables; note: % is set by controls: 0 for no effect and ±100 for the full control effect; luciferase read-out
NS1 function inh – influenza NS1 inhibition | S. cerevisiae slowed by influenza A NS1, growth recovery by OD600 | Potency, µM (titrated, usually from 46.1 µM), for inactives: at the top dose activity, positive = more growth | 0.4% of 270,000 active; note: actives are rising curves; nearly all actives have a fitted effect of over 50% in size
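S. cerevisiae expressing influenza A NS1, grown in glucose, washed, then diluted 1:100 into pH 6.0 -URA galactose medium with 23 nl compound. Growth recovery read as OD600; NS1-free strain serves as control.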
Cruzain noTriton – inhibitors of Trypanosoma cruzi cruzain without detergent. P25779. purified cruzain, Z-FR-AMC fluorescence, no detergent. Potency, µM, without a hit: max response, negative = inhibition, usual class: inhibitors. AID 1476. 2.3% of 200,000 active; active = well fitted curve in the direction sought with a large enough effect; inconclusive = small, poorly fitted or top-dose-only effect, or another doubt; inactive = no such curve, though single readings can be large; an effect the other way counts as inactive or inconclusive;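 note: plate controls were enzyme without inhibitor for no effect and buffer without enzyme for full effect; nearly all actives have a fitted effect of over 40% in size; top concentration of the series not given in the record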
Target sequence (P25779 123-467 limits assumed): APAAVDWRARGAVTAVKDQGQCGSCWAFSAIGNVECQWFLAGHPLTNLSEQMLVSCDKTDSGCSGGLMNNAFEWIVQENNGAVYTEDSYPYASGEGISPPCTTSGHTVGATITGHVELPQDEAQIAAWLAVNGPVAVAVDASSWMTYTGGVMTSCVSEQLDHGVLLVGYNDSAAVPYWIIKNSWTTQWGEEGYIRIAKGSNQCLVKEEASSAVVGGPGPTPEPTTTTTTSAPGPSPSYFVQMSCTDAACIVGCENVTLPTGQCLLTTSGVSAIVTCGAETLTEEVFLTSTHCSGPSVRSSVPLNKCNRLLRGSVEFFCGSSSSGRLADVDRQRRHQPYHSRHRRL
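Detergent-free condition (0.00005% Triton X-100) in acetate buffer pH 5.5 with DTT. 1.5 nM enzyme and compound were pre-mixed 15 min, then 2 uM Z-FR-AMC substrate added; reaction progress from fluorescence change between first and third reads (60 s).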
2A StopGo – FMDV 2A StopGo reporter, luciferase signal. human cells with a luciferase reporter of 2A StopGo recoding; control for the full effect not named in the record. Potency, µM (top dose mostly 57.9 µM), inactives show top-dose signal change, negative = less light. 1.2% of 410,000 active; active = well fitted falling curve with a large enough effect; inconclusive = small, poorly fitted or top-dose-only effect; inactive = no such curve, though single readings can be large or run the other way; tested in HEK293T cells; note: % is set by controls: 0 for no effect and ±100 for the full control effect; nearly all actives have a fitted effect of over 45% in size; luciferase light after 4 h
Cruzain inh Det – inhibitors of Trypanosoma cruzi cruzain with detergent | P25779 | purified cruzain, Z-FR-AMC fluorescence, 0.01% Triton | AID 1478 | 0.43% of 200,000 active | Potency, µM, for the others: max response, negative = inhibition, hits mostly inhibitors; active = well fitted curve in the direction sought with a large enough effect; inconclusive = small, poorly fitted or top-dose-only effect, or another doubt; inactive = no such curve, though single readings can be large; an effect the other way counts as inactive or inconclusive;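 note: plate controls were neutral wells for no effect and buffer without enzyme for full effect; nearly all actives have a fitted effect of over 40% in size; top concentration of the series not given in the record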
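In this qHTS format, compounds are incubated with 1.5 nM cruzain for 15 min at room temperature before 2 uM Z-FR-AMC is added. Release of AMC is followed at 360/450 nm, and progress is taken as the 60 s fluorescence difference.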
Lassa entry inh – blocks Lassa virus binding to or entry into cells. 1.2% of 300,000 active. AID 540256. Lassa virus pseudotype entry inhibition, cell reporter; control for the full effect not named in the record. Potency, µM (series often up to 37.9 µM), inactives show top-dose activity change, negative = inhibition, most hits filed as inhibitors; active means well fitted inhibition curve with a large enough effect; inconclusive means small, poorly fitted or top-dose-only effect, or effect the other way; inactive means flat fitted curve, though single readings scatter; tested in HEK293 cells; note: % is set by controls: 0 for no effect and ±100 for the full control effect; nearly all actives have a fitted effect of over 50% in size; luciferase read-out
SARS PLpro yeast – blocks SARS-CoV papain-like protease in a yeast assay; S. cerevisiae expressing SARS-CoV PLpro, growth rescue; control for the full effect not named in the record; AID 485353; Potency, µM (series often up to 32.9 µM), for inactives: at the top dose activity, positive = growth rescue; 0.19% of 330,000 active; note: 0% is about no effect; nearly all actives have a fitted effect of over 55% in size; growth read by luminescence after 48 h
* marks the source's active call; other numbers are inactive results; ? = inconclusive; · = not tested or not shown; & = joins results of further samples; [ ] = dose if it differs, or a comment. Unless noted, calls come from the whole dose curve; as a rule, active means well fitted rising curve with a large enough effect; inconclusive means small, poorly fitted or top-dose-only effect; inactive means no such curve, though single readings can be large or run the other way. Potency is the fitted concentration of half-maximal effect.

Compound	RE007 growth inh	Marburg entry inh	NS1 function inh	Cruzain noTriton	2A StopGo	Cruzain inh Det	Lassa entry inh	SARS PLpro yeast
CC(CCc1ccco1)NC(=O)CCc1nnc2ccc(NCc3ccccc3Cl)nn12 (centres undefined)	-11.2%	·	7.9%	·	-12.0%	·	·	2.8%
CCCC(=O)O[C@H]1C[C@@H](C)N(C(=O)c2ccccc2)c2ccc(C)cc21	0.1%	?	16.8%	3.1%	?	-7.0%	?	-31.3%
CCOc1ccc(NC(=O)CSc2nc(-c3ccc(OC)cc3)nc3c2Cc2c(CO)cnc(C)c2O3)cc1	·	·	·	12.7%	-13.4%	0.3%	-1.3%[46.1 µM]	·
Cc1ccc(NC(=O)c2cnn(C)c2)cc1[N+](=O)[O-]	-2.9%	-3.6%	-15.0%	-5.1%	6.3%	-5.9%	?	20.6%
Cc1ccc(OCCCC(=O)Nc2ccccc2C(F)(F)F)cc1	0.0%	0.1%[46.1 µM]	-11.0%	-2.3%	6.2%	0.4%	12.7%	4.0%
O=P1(Oc2ccccc2)CC=C[C@H](COCc2ccccc2)O1 (some centres undefined)	1.2%	·	-3.0%	·	-17.3%	·	·	-0.2%
Cc1cc(C)cc(NC(=O)CSc2nc(N)c(NC(=O)c3ccc(Br)o3)c(=O)[nH]2)c1	-10.9%	3.5%	-11.6%	·	-12.0%	·	-0.9%	-3.4%
O=C(CCN=C1NS(=O)(=O)c2ccccc21)OCC(=O)c1ccccc1Cl	10.2%	-15.2%	·	·	47.6%[activator]	·	?	-0.7%
Cc1oc(-c2ccccc2F)nc1Cn1c(SCc2cccc(C(F)(F)F)c2)nc2ccncc21	·	?	·	?	-15.6%	-2.8%	-6.7%[46.1 µM]	·
Cc1sc2nc(CN3CCOCC3)nc(NS(=O)(=O)c3ccc4c(c3)OCCO4)c2c1C	-14.6%	?	-5.4%	?	27.6%	-1.2%	-2.3%	1.0%
Cc1ccccc1N(CC(=O)NC1CCCC1)C(=O)c1oc(C(C)(C)C)cc1C	10.5%	?	10.9%	9.2%	·	-16.0%	?	1.6%
CCN1CCN(C(=O)/C=C/c2ccccc2[N+](=O)[O-])CC1	1.8%	2.6%[46.1 µM]	1.7%	·	-3.5%	·	-9.8%	0.0%
COc1ccc2[nH]cc(CCNS(=O)(=O)c3ccc(NC(C)=O)cc3)c2c1	6.3%	-6.2%[46.1 µM]	·	·	-8.9%	·	-15.4%	4.1%
COc1ccc(Cl)cc1NC(=O)Cn1c(=O)c2ccccc2n2nncc12	·	13.9%[46.1 µM]	·	-3.6%	-24.6%	-4.8%	?	·
COc1ccc(-n2ncc(C(=O)N3CCN(C(=O)c4ccco4)CC3)c2C2CCN(C(=O)OC(C)(C)C)CC2)cc1	·	·	·	-14.3%	13.9%	-0.7%	11.7%[46.1 µM]	·
CCOC(=O)c1c(NC(=O)CN2C(=O)NC3(CCCCC3)C2=O)sc(C)c1-c1ccc(C)cc1	32.0%	?	3.2%	-23.2%	?	-8.6%	?	6.3%
Cc1c(NC(=O)Cn2[nH]c(=O)c3ccccc3c2=O)c(=O)n(-c2ccccc2)n1C	-0.4%	6.5%	3.1%	-3.3%	-7.4%	4.1%	5.3%	2.5%
O=C(Nc1ccc2oc(-c3ccc(F)cc3)nc2c1)c1ccccc1F	-4.9%	0.7%	5.0%	-22.9%	10.8%	-8.0%	-1.3%	4.8%
CCOc1ccc(CN2C(=O)c3ccccc3Sc3ccc(C(=O)NCc4ccc(C)cc4)cc32)cc1	·	10µM*	·	10µM*	-6.4%	-1.3%	?	·
CCCCOc1cccc(C(=O)Nc2ccc3oc(-c4cccnc4)nc3c2)c1	·	·	·	-5.8%	15.8µM*	-0.3%	26.0%[46.1 µM]	·
Nc1cccc2c1C(=O)N(CCOc1ccccc1F)C2=O	-12.9%	?	-3.6%	·	-43.9%	·	2.82µM*	0.3%
COC(=O)CSc1nc2ccccc2o1	9.9%	0.1%	-3.7%	-0.9%	·	7.9%	0.2%	6.8%
O=C(COC(=O)c1ccc(Cl)c(S(=O)(=O)N2CCN(c3ccc(F)cc3)CC2)c1)Nc1cccc(Cl)c1	-7.4%	?	8.5%	12.6µM*	-23.6%	-4.0%	-23.4%	1.9%
Oc1ccccc1C=NC1=NN(c2cccc(C(F)(F)F)c2)CC1	-1.8%	9.6%	-36.0%	?	12.7%	-9.3%	-8.6%	-68.2%
O=C(COc1ccccc1)Nc1ccc2c(c1)Cc1cc(NC(=O)COc3ccccc3)ccc1-2	-0.2%	-0.7%	3.8%	2.51µM*	-7.7%	4.1%	4.4%	16.1%
O=C(NCc1ccccc1)C1CCN(S(=O)(=O)c2cc([N+](=O)[O-])ccc2Cl)CC1	-6.9%	10.0%	9.1%	-17.7%	-17.0%	-5.4%	-17.0%	-3.7%
Cc1ccc(S(=O)(=O)Nc2ccc(=O)n(Cc3ccc(Cl)c(Cl)c3)c2)cc1	-22.1%	-29.8%[46.1 µM]	5.8%	-5.9%	-13.0%	-13.9%	-0.8%	1.1%
Cc1nc2scc(C)n2c(=O)c1S(=O)(=O)NCCc1ccccc1	-6.5%	1.9%&1.9%[46.1 µM]	3.9%	-16.8%	40.6%&25.3%[activator]	-5.5%	?	4.6%
Cc1nnc(SCC(=O)Nc2ccc(S(N)(=O)=O)cc2)n(N)c1=O	-8.3%	-17.7%[46.1 µM]	·	·	-9.2%	·	-0.4%[46.1 µM]	·
COc1ccc2c(c1)c(=O)c(C(=O)c1ccc(C)cc1)cn2CC(=O)Nc1ccc(F)cc1	22.3%	-36.6%	?	10.7%	-13.1%	-7.5%	2.0%	0.8%

(listing goes on)
Compound	RE007 growth inh	Marburg entry inh	NS1 function inh	Cruzain noTriton	2A StopGo	Cruzain inh Det	Lassa entry inh	SARS PLpro yeast
COc1ccc(Cl)cc1NC(=O)c1ccc2c(c1)CCN2S(C)(=O)=O	·	25.6%[46.1 µM]	·	?	15.8%	-7.3%	15.9%[46.1 µM]	·
COC(=O)c1ccc2c(=O)n(CCCCCC(=O)N3CCN(c4ccccc4)CC3)c(=O)[nH]c2c1	10.7%	?	-31.3%	?	11.2µM*	-0.4%	?	4.7%
Cc1[nH][nH]c(=O)c1C(c1ccc(-c2ccccc2C(=O)O)o1)c1c(C)[nH][nH]c1=O	-20.4%	-5.6%[46.1 µM]	·	·	-7.9%	·	-1.4%[46.1 µM]	1.0%
C=CCNC(=O)c1ccc(CN2CCC(Cc3ccccc3)CC2)cc1	-0.6%	·	1.3%	·	-16.5%	·	·	-3.5%
O=C(COC(=O)Cn1cnc2ccccc21)Nc1cc2c(cc1Cl)C(=O)c1ccccc1C2=O	3.5%	·	-34.8%	·	29.2%	·	·	-1.0%
O=C(CCSc1ccccc1)Nc1ccccc1C(=O)N1CCCC1	-12.4%	18.2%	4.4%	4.3%	-9.0%	-0.2%	15.2%	18.7%
C=CCn1c(NCc2ccc(N(C)C)cc2)nc2ccccc21	-0.7%	15.3%[46.1 µM]	-13.9%	0.3%	24.1%	4.1%	?	-11.1%
O=C(O)c1ccc(NC2=Nc3cccc4cccc2c34)cc1	-6.1%	·	-6.0%	·	18.8%	·	·	-2.5%
COc1ccc(CCn2c(-c3ccco3)nc3nc4ccccc4nc32)cc1	-6.3%	?	?	-4.7%	0.3%	-5.0%	-19.2%	-7.3%
CC(C)(C)C(=O)Nc1scc(-c2ccc(-c3ccccc3)cc2)c1C(=O)O	2.3%	·	4.3%	·	-21.0%	·	·	-0.9%
CCOc1ccc(NC(=O)CN2CCN(CC(=O)c3ccc(OC)c(OC)c3)CC2)cc1	-6.1%	-5.4%&2.5%	-8.8%	-1.6%	-3.9%	1.0%	-3.7%	-4.3%
Cc1ccccc1C(=O)N1CCC(C(=O)N(C)CCOc2ccccc2)CC1	-4.7%	4.5%	-4.3%	·	5.2%	·	-14.1%	-3.3%
CCOc1ccc(C(CC(=O)O)NC(=O)COc2ccccc2)cc1OC (centres undefined)	-17.0%	11.4%[46.1 µM]	·	·	1.3%	·	11.8%	3.7%
CN1C(=O)c2ccccc2NC(=O)[C@]12O[C@@H]2c1cccc(O)c1	98.1%	·	2.1%	·	-3.6%	·	·	3.1%
COc1ccc(-c2sc(NC(=O)c3ccc(C)cc3)nc2-c2ccc([N+](=O)[O-])cc2)cc1	-5.3%	?	13.9%	3.98µM*	-24.0%	-4.7%	2.3%	-11.2%
COc1cc(/C=N/n2cnnc2)ccc1OCCSc1ccc(C)cc1	-8.2%	-1.8%	-16.3%	?	-8.6%	0.0%	15.8%	-7.0%
CCCCN(C(=O)CSc1nnc(-c2ccccc2OC)n1C)c1c(N)n(Cc2ccccc2)c(=O)[nH]c1=O	-8.5%	-10.3%	24.7%	?	-2.8%	-1.5%	3.9%	-6.2%
O=c1cc(-c2ccc(O)c(O)c2)oc2cc(O)c(C3OC(CO)C(O)C(O)C3O)c(O)c12 (centres undefined)	-13.5%	·	2.5%	·	-21.5%	·	·	0.2%
Cc1ccccc1NC(=O)Cc1nnc(SCC(=O)N2CCOCC2)n1C	-18.8%	?	10.4%	·	-14.4%	·	-9.8%	24.0%
COC(=O)c1cccc(NC(=S)N2CCCCC2)c1	4.6%	-0.1%[46.1 µM]	7.9%	·	40.2%[activator]	·	11.9%	0.3%
Cc1ccc(NC(=S)NCc2cccs2)cc1	5.0%	?	-0.6%	-7.8%	41.5%[activator]	4.0%	9.5%	?
COc1ccc(NC(=O)CSCC(=O)N=c2sccn2C)cc1	-3.5%	·	5.1%	·	-2.0%	·	·	4.1%
CCN(CC)CCCN(C(=O)c1cccs1)c1nc(-c2ccc(OC)cc2)cs1	-7.0%	?	-3.6%	-7.0%	-13.7%	-4.6%	?	-1.9%
